Assay outcomes deposited in PubChem BioAssay by Fisher Drug Discovery Resource Center.
NPYLR7 ag – activates Aedes aegypti NPYLR7 receptor; HEK293T NPYLR7/Galpha15, GCaMP6s calcium fluorescence; activation, % at 10 µM; actives 0.15% (n = 270,000); AID 1259423; in the data active = activation above about 40%;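 also: 0% = vehicle and 100% = reference agonist at the receptor; some compounds past the cut are filed as inactive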
NPYLR7 ag max-min – recorded beside NPYLR7 ag, whose call it bears; activation, %; measured here: Max-Min RFU normalised activation; some inactives read as strong as hits;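 span of the calcium signal over five minutes; 0% = vehicle and 100% = native peptide agonist; compound fluorescence can raise it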
An asterisk follows results filed as active; & = joins results of further samples.

SMILES	NPYLR7 ag	NPYLR7 ag max-min
C[C@@H]1CC[C@@]2(OC1)OC1CC3C4CC=C5C[C@@H](O)CC[C@]5(C)C4CC[C@]3(C)C1[C@@H]2C (stereo partly drawn)	-4	-15
CC(C)(C)n1ncc2c(=O)n(NC(=O)CC(c3ccccc3)c3ccccc3)cnc21	2	-3
C=CCOCC(O)CN(Cc1cccc(C)c1)Cc1ccco1 (stereo not drawn)	19	19
COc1ccc(CCN2CC(C(=O)NC3c4ccccc4-c4ccccc43)CCC2=O)cc1 (stereo not drawn)	10	0
Cc1nc(NC(=O)NC2CCC(CC3CCC(NC(=O)Nc4n[nH]c(C)n4)CC3)CC2)n[nH]1 (stereo not drawn)	-1	-8
CC(C)c1ncc(Cl)c(C(=O)N2CCN(C)CC2C)n1 (stereo not drawn)	12	4
CCOC(=O)C1CCN(C(=O)CCN(Cc2ccco2)c2nc(Cc3cccc(OC)c3)ns2)CC1	-6	-1
O=C1C=CC(=O)C2C3c4ccccc4C(c4ccccc43)C12 (stereo not drawn)	8	2
O=C(c1ccc2c(c1)OCCO2)N1CCc2sccc2C1c1ccccc1 (stereo not drawn)	4	6
COc1ccc(NC(=O)CSc2nnc3n4ncnc4c4c5c(sc4n23)COC(C)(C)C5)cc1	4	-2
COc1ccc(OCC2CN(C(=O)COc3ccc(C)cc3)CCO2)cc1 (stereo not drawn)	36	25
CC(=O)C1CN(C)CCC1(C)O (stereo not drawn)	2	-10
COc1ccc(N2CC(C)Cn3c2nc2c3c(=O)n(CC(C)=O)c(=O)n2C)cc1 (stereo not drawn)	-6	-10
COc1cccc(C(CC(=O)O)c2c[nH]c3ccccc23)c1OC (stereo not drawn)	-14	-6
CCOc1ccc(N2CCn3c2nc2c3c(=O)n(CC(C)C)c(=O)n2C)cc1	2	38
CCc1nc(N(CCC(=O)NCc2cccc(C(F)(F)F)c2)CCc2ccccc2)c2ccccc2n1	12	19
CC(C)(C)NC(=O)CNC(=O)C(=O)Nc1cc(F)ccc1Cl	6	4
CCOC(=O)c1nn(-c2ccc(C)cc2)c(=O)cc1N1CCN(c2ccccc2Cl)CC1	6	3
CCOC(=O)C1(CCCc2ccccc2)CCN(C(=O)c2cnc(C)cn2)CC1	4	0
Cc1cc(C)n(CCCn2ccnc2-c2nc[nH]c2C)n1	12	6
COc1cc(OC)cc(C(=O)N2CCSC2c2ccccc2OCc2ccccc2)c1 (stereo not drawn)	-4	0
COCCN(Cc1nc(C(=O)NCCN2CCOCC2)cs1)C(=O)Nc1ccc(Cl)cc1	-5	10
CCOC(=O)c1c(NC(=O)c2cccc(Cl)c2)sc(C(=O)Nc2cccc(C(F)(F)F)c2)c1C	11	14
Cc1cccc(-n2nc(C(C)(C)C)cc2NC(=O)CN(CCC(C)C)C(=O)C(Cl)Cl)c1	0	2
CCNC(=O)c1cc2sccc2n1CCOc1ccccc1	3	0
O=C(CCN1CCCCO1)NCC1(N2CCOCC2)CCCCC1	0	-11
COc1cccc(-c2nnc(SCc3ccc(C(=O)NCc4cccc(C(F)(F)F)c4)cc3)n2-c2ccccc2OC)c1	20	17
Cc1cc(C)c(CN2CC(c3ccncc3)C2)c(-n2cccn2)c1	5	1
CC1=C(C(=O)OCc2ccccc2)C(c2cn(-c3ccccc3)nc2-c2ccc(C)cc2)C(C(=O)OCc2ccccc2)=C(C)N1	-7	-12
O=C(NCc1csc(N2CCOCC2)n1)c1cccc2ccnn12	2	0
O=C(CN1CCN(c2nccc(Nc3ccc4ncsc4c3)n2)CC1)Nc1ccc2c(c1)CCC2	0	5
Cn1ccc(CN2CCC(C(O)c3ccccc3)CC2)cc1=O (stereo not drawn)	5	3
COc1ccccc1-n1c(SCc2ccc(C(=O)NCc3ccco3)cc2)nnc1-c1ccco1	21	15
O=C(CNC(=O)C1CC1)NC(COc1ccccc1F)c1ccccc1 (stereo not drawn)	-8	-10
O=C(c1cccc(Cl)c1)N1CCCN(c2cc(Oc3ccc(F)c(Cl)c3)ncn2)CC1	-5	10
Cc1nnc(SCC(=O)N2CCCC(C(=O)c3ccc4c(c3)OCO4)C2)o1 (stereo not drawn)	23	6
Cn1nccc1-c1ccc(C(=O)Nc2cccc(NS(C)(=O)=O)c2)c2occc12	-9	-13
O=C(N=Nc1c(O)[nH]c2ccccc12)c1cc(-c2ccc3ccccc3c2)n[nH]1	10	7
CCc1ccc(OC)c(S(=O)(=O)NCc2ccco2)c1	1	-2
CCN1CCN(C(c2cc(OC)c(OC)c(OC)c2)C2Sc3nc(C)nn3C2=O)CC1 (stereo not drawn)	3	0
O=C(Nc1ncn[nH]1)c1ccc(N2CCCCC2)c(S(=O)(=O)N2CCCCC2)c1	18	12
COc1ccc(S(=O)(=O)N(CC(=O)N2CCN(c3ccccc3)CC2)c2ccc(C)cc2)cc1OC	-7	-2
O=S1(=O)CCCN1CCCc1ccc(Cl)cc1	3	-1
Cc1ccc(-c2nnc(SCc3ccc(C(=O)N4CCOCC4)cc3)n2-c2cccc(Cl)c2)cc1	23	34
Cc1ccc(NC2(C(=O)N3CCNC(=O)C3CCO)CCCC2)cc1 (stereo not drawn)	2	-11
CNC(=O)CC1C(=O)NCCN1CC(=O)NCCc1ccc(Cl)cc1 (stereo not drawn)	5	-7
CC(C)CCNC(=O)CN1C(=O)COc2ccccc21	14	14
Cc1ccccc1-n1c(SCCCC(=O)N2CCN(C(=O)CC(C)(C)C)C(C)C2)nnc1-c1ccccc1 (stereo not drawn)	-4	-1
CCOC(=O)N1CCN(C(=O)CNC2CCCC(C)C2C)CC1 (stereo not drawn)	-5	-7
O=C(NC1CCCCC1)C(=O)N1CCN2C(=O)CNC(=O)C2C1 (stereo not drawn)	5	7
The list goes on:
SMILES	NPYLR7 ag	NPYLR7 ag max-min
CCOC(=O)c1c(C)n(C)c2cc(Br)c(O)cc12	-2	-7
COCCn1c(-c2ccncc2)nn(CN2CCOCC2)c1=S	-1	-5
O=C(Nc1cccc(-c2cc3ccccc3[nH]2)c1)C1CCN(C(=O)C2CCCO2)CC1 (stereo not drawn)	0&1	-4&2
NC1=NC(=O)C(CC(=O)Nc2ccc(SC(F)(F)C(F)(F)C(F)(F)F)cc2)S1 (stereo not drawn)	-5	-15
CCOC(=O)C1CCN(CC(=O)N2N=C(c3ccc(OC)cc3OC)CC2c2ccccc2Cl)CC1 (stereo not drawn)	-6	-1
COc1ccc(-c2cc(C(=O)NC3CCN(Cc4ccccc4)CC3)c(C)n2-c2ccc(F)cc2F)cc1	18	19
CCNC(=O)N(CCOC)Cc1c(-c2ccccc2)noc1N(CC)CC	3	14
CCc1cc(=O)n2c(n1)SCC2CC(=O)Nc1ccon1 (stereo not drawn)	-2	-4
Cc1ccc(S(=O)(=O)NC(=O)C2(C)CCN2C(=O)c2c(C)noc2C)cc1 (stereo not drawn)	2	1
CCc1cccc(OCC(=O)N2CCC(NS(=O)(=O)c3cccs3)CC2)c1	6	1
C=CCn1c(N)cc(=O)nc1SC(CC)C(=O)Nc1ccc(S(N)(=O)=O)cc1 (stereo not drawn)	4	5
Clc1ccc(CN2CCC(CCn3cccn3)CC2)s1	3	1
CCS(=O)(=O)c1ccc(-c2ccc(C(N)=O)cc2)s1	15	10
C#CCSc1nc(=O)n2cc(C)ccc2n1	0	0
O=C(CC12CC3CC(CC(C3)C1)C2)Nc1noc2ncccc12	-4	-3
COCCn1c(SCC(=O)Nc2cccc(C)c2)nc2c(c1=O)SC(C)C2 (stereo not drawn)	-1	-3
Nc1nc(N)nc(SCC(=O)N2CCN(CC(=O)N3CCCC3)CC2)n1	-2	13
Cc1c(NC(=O)CCc2ccncc2)cccc1C(=O)Nc1nccs1	0	14
COc1ccc(Cc2nc(CSc3cccc4cccnc34)cs2)cc1	4	14
CN(C1CCCCC1)S(=O)(=O)c1ccc2ccccc2c1	1	-1
Cc1ccccc1-n1cc(CN(C)C(=O)c2cn[nH]n2)cn1	2	-5
O=C(Cn1ccnc1)NNC(=O)c1ccccc1C(F)(F)F	-1	-1
Clc1ccc(OCCSc2nc3ccc(Br)cc3[nH]2)cc1	0	-5
CC(C)CN(CCC(=O)NC(C)c1ccccc1)c1nc(-c2ccc(F)cc2)nc2cc(Cl)ccc12 (stereo not drawn)	11	10
O=C(CCCc1n[nH]c(Cc2ccccc2)n1)Nc1cccc(Cl)c1	20	16
O=C(CN(C(=O)C12CC3CC(CC(C3)C1)C2)C1CC1)N(CCc1c[nH]c2ccccc12)Cc1ccc(F)cc1	1	1
CCOC(=O)[C@@H]1CN2CCN(C(=O)C3CC3)C[C@@H]2[C@H]1c1ccccc1	2	12
Cc1nnc(SC(C)C(=O)N(C)C)n1C1CCCCC1 (stereo not drawn)	9	6
N#Cc1c(N2CCCCC2)nc2c3c(nc(N4CCCCC4)cc13)NC1(CCCCC1)N2	26	23
O=C(CCC1CCCC1)N1CCc2c([nH]c3ccccc23)C1c1cc(Cl)cc2c1OCO2 (stereo not drawn)	-4	-12

18 neighbouring compounds from above, quoted:
SMILES	NPYLR7 ag	NPYLR7 ag max-min
CCc1cccc(OCC(=O)N2CCC(NS(=O)(=O)c3cccs3)CC2)c1	6	1
C=CCn1c(N)cc(=O)nc1SC(CC)C(=O)Nc1ccc(S(N)(=O)=O)cc1 (stereo not drawn)	4	5
Clc1ccc(CN2CCC(CCn3cccn3)CC2)s1	3	1
CCS(=O)(=O)c1ccc(-c2ccc(C(N)=O)cc2)s1	15	10
C#CCSc1nc(=O)n2cc(C)ccc2n1	0	0
O=C(CC12CC3CC(CC(C3)C1)C2)Nc1noc2ncccc12	-4	-3
COCCn1c(SCC(=O)Nc2cccc(C)c2)nc2c(c1=O)SC(C)C2 (stereo not drawn)	-1	-3
Nc1nc(N)nc(SCC(=O)N2CCN(CC(=O)N3CCCC3)CC2)n1	-2	13
Cc1c(NC(=O)CCc2ccncc2)cccc1C(=O)Nc1nccs1	0	14
COc1ccc(Cc2nc(CSc3cccc4cccnc34)cs2)cc1	4	14
CN(C1CCCCC1)S(=O)(=O)c1ccc2ccccc2c1	1	-1
Cc1ccccc1-n1cc(CN(C)C(=O)c2cn[nH]n2)cn1	2	-5
O=C(Cn1ccnc1)NNC(=O)c1ccccc1C(F)(F)F	-1	-1
Clc1ccc(OCCSc2nc3ccc(Br)cc3[nH]2)cc1	0	-5
CC(C)CN(CCC(=O)NC(C)c1ccccc1)c1nc(-c2ccc(F)cc2)nc2cc(Cl)ccc12 (stereo not drawn)	11	10
O=C(CCCc1n[nH]c(Cc2ccccc2)n1)Nc1cccc(Cl)c1	20	16
O=C(CN(C(=O)C12CC3CC(CC(C3)C1)C2)C1CC1)N(CCc1c[nH]c2ccccc12)Cc1ccc(F)cc1	1	1
CCOC(=O)[C@@H]1CN2CCN(C(=O)C3CC3)C[C@@H]2[C@H]1c1ccccc1	2	12

(further entries)
SMILES	NPYLR7 ag	NPYLR7 ag max-min
CCCCc1nc(N2CCN(C(=O)Nc3ccc(Cl)cc3)CC2)c2c(C)nn(-c3ccc(F)cc3)c2n1	2	2
O=C(CSc1nc2sc3c(c2c(=O)n1C1CCCC1)CCCC3)N1CCCC1	-3	-5
COCCOc1cc(NS(=O)(=O)c2c(Cl)cccc2Cl)c(C(=O)O)cc1OC	-1	-2
Cc1cc(NC(=O)Cn2nc(C(F)(F)F)c(Cl)c2C)no1	11	10
Cc1ccccc1COc1cn(CC(=O)N2CCN(c3ccccc3)CC2)c(CO)cc1=O	17	16
N#Cc1cc(F)c(NC(=O)c2nsc(Cl)c2Cl)cc1F	7	6
CCOC(=O)[C@]12C(=C(c3ccccc3)OC3OCCCC31)C(=O)C(=O)N2c1ccccc1 (stereo partly drawn)	-2	-8
Cc1ccccc1CO[C@]1(C(=O)NCC(C)C)CC(OCc2cccc(C(F)(F)F)c2)[C@@H]2OC(C)(C)O[C@@H]2C1 (stereo partly drawn)	4	5
CCC(N1C(=O)C2C3CCC(O3)C2C1=O)C12CC3CC(CC(C3)C1)C2 (stereo not drawn)	0	44
CC1CCN(C2=C(c3c(C(C)C)[nH]n(-c4ccc(Cl)cc4)c3=O)C(=O)N(c3ccc4c(c3)OCO4)C2=O)CC1	-1&-6	2&-5

Reformatted: entries from further up
CCOC(=O)c1nn(-c2ccc(C)cc2)c(=O)cc1N1CCN(c2ccccc2Cl)CC1
  NPYLR7 ag = 6 | NPYLR7 ag max-min = 3

CCOC(=O)C1(CCCc2ccccc2)CCN(C(=O)c2cnc(C)cn2)CC1
  NPYLR7 ag = 4 | NPYLR7 ag max-min = 0

Following part
SMILES	NPYLR7 ag	NPYLR7 ag max-min
COc1cc(OC)c(OC)cc1CNC(=O)Nc1cc(C)on1	-1	-1
CN1C(=O)c2ccc(NC(=O)c3cc(S(C)(=O)=O)ccc3Cl)cc2C1=O	5	2
CCC(=O)N(CCn1nc(C)cc1C)c1nc2c(C(C)C)cccc2s1	-15	-17
O=C(CSc1nnc(C2CC2)n1C1CC1)NC(=O)NCC(F)(F)F	3	3
O=C1c2ccccc2S(=O)(=O)N1c1c(F)c(F)nc(F)c1F	1	0
Cc1cccc(OC2CN(C(=O)CCn3cc(C)cn3)C2)c1	0	-2
O=P1(NNC(=S)NCc2ccccc2)C=C(c2ccccc2)OC(c2ccccc2)=C1	4	3
CN(CCSc1ccccc1)Cc1cc2n(n1)CCNC2	21	13
CC(Cn1cncn1)NC(=O)c1cc(COc2cccc(F)c2)[nH]n1 (stereo not drawn)	16	4
CCOc1ccccc1N1CCN(C(=O)c2ccccc2N2CCC(NC(=O)c3ccc(OC)cc3)CC2)CC1	1	9
Cc1ccc(S(=O)(=O)n2ccn(C(=O)C(C)C)c2=O)cc1	8	1
Cc1cc(N2CCN(c3ccccc3Cl)CC2)nc(SCc2cccc(C(=O)NCc3ccccn3)c2)n1	11	7
Cc1cc(C)cc(NC(=O)CSc2nc(=O)n3cc(C)ccc3n2)c1	1	-2
CCCCS(=O)(=O)N1CN(S(=O)(=O)CCCC)C2NC(=O)NC21 (stereo not drawn)	0	-1

These rows are one share of the data, so the mix of outcomes need not match the whole.
